Source: PubChem BioAssay (National Center for Advancing Translational Sciences (NCATS))
TRPV1 PAM – enhances activation of the human vanilloid receptor TRPV1; Q8NER1; TRPV1-expressing cells, Fluo-8 calcium influx, capsaicin EC20 potentiation; host cell line not named in the record; control for the full effect not named in the record; potentiation, % at 8.33 µM; 320,000 tested, 0.02% active; AID 540277; active means potentiation above 80%; inconclusive means 30% to 80%; inactive means below 30%; also: 0% is about no effect
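Cells expressing TRPV1 were dye-loaded with Fluo-8 and read kinetically: 10 s baseline, 3 min after compound (agonist portion), then 2 min after EC20 capsaicin (allosteric enhancer portion). Calcium-bound dye fluorescence at 480/520 nm.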
ClpP mod – qHTS Assay for Activators of ClpP | Potency, µM (highest dose often 57.5 µM), for the others: at the top dose activity change, negative = active | 340,000 tested, 1.9% active | purified B. subtilis ClpP, FRET peptide cleavage, 20 min | AID 651965, 2013 | ATP-dependent Clp protease proteolytic subunit (Bacillus subtilis (strain 168)), P80244; active = well fitted falling curve with a large enough effect; inconclusive = small, poorly fitted or top-dose-only effect; inactive = no such curve, though single readings can be large or run the other way; also: potency is read from the fitted curve at half-maximal effect; the source files actives as falling curves though it sought activators and does not explain the sign; nearly all actives have a fitted effect of over 65% in size; many hits overshoot -100%
Target sequence (P80244 whole entry, looked up): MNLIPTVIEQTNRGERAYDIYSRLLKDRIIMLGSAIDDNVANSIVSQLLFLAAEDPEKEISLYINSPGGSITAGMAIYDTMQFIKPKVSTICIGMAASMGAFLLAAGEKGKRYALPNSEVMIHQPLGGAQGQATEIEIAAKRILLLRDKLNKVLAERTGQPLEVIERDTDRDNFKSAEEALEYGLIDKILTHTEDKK
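FRET quenching reversal measured ClpP activation: 10 microg/mL B. subtilis ClpP at pH 8 with the FRET-FV decapeptide, read at 430 nm after 320 nm excitation. The 20-min minus 0-min signal was scaled between DMSO/no-enzyme wells and ADEP (5.8 microM final).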
Menin-MLL FL inh – displaces fluorescein MLL peptide from human menin; Fluorescence polarization, fluorescein-MLL peptide displacement from menin; 290,000 tested, under 10 active; AID 1766; FP activity change, % at 61.4 µM; inconclusive = falling polarisation curve, or a change in total fluorescence; inactive = total fluorescence flat and polarisation flat or rising; no compound was filed as active; the % refers to the polarisation; negative = inhibition;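 also: % of control where 0% means no effect; inhibitors lower the polarisation; unlabelled MLL peptide was the positive control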
gsp agonist – gsp mutant agonism; 340,000 tested, 0.13% active; Potency, µM (doses to about 76.9 µM), for the others: at the highest dose activation (cAMP increase), hits mostly activators; gsp mutant cells, cAMP HTRF, 30 min; control for the full effect not named in the record; active = well fitted activation curve with a large enough effect; inconclusive = small, poorly fitted or top-dose-only effect, or another doubt; inactive = no such curve, though single readings can be large or run the other way; cell line not stated here;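 also: phosphodiesterase inhibitor Ro 20-1724 added with compounds to block cAMP breakdown; potency is read from the fitted curve at half-maximal effect; nearly all actives have a fitted effect of over 60% in size; about a fifth of the inactives were tested at one dose only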
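Cells stably selected in G418 were plated at 2000/well, grown 16-24 hr, then given compounds in DMSO with the PDE inhibitor […] (300 uM solution added) for 30 min at 37C; cAMP was read by HTRF.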
D2 potentiator – potentiates the human D2 dopamine receptor allosterically; DiscoveRx D2 beta-arrestin cells, luminescence, 90 min; 100% = 57 uM dopamine signal; potentiation, % (concentration not given with the values); 360,000 tested, 0.23% active; active = potentiation of 50% or more; inconclusive = 30% to 50%; inactive = 30% or less;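 also: compound concentration not given in the record; tested on top of an EC20 dose of dopamine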
Target sequence (P14416 whole entry, looked up): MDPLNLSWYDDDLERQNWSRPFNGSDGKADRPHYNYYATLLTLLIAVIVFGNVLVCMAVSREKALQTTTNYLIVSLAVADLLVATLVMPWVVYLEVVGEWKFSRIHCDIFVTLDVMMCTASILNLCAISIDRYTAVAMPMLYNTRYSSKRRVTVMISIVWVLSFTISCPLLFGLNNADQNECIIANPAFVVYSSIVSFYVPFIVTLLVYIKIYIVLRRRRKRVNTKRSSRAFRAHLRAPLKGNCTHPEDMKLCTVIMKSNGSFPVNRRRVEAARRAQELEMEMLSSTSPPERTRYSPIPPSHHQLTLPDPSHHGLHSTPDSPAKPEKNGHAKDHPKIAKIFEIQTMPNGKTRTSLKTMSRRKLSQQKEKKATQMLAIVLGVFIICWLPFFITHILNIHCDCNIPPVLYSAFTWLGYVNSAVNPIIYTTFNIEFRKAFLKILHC
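PathHunter D2 cells, attached overnight at 37 deg C, received compound in DMSO plus dopamine at EC20 (50 nM final) for 90 min at 37 deg C. Beta-arrestin recruitment was read as luminescence after 1 h with detection reagent at ambient temperature.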
Sfp inh – Sfp phosphopantetheinyl transferase inhibition. 310,000 tested, 3.5% active. Potency, µM, for inactives: max response, negative = inhibition, most hits filed as inhibitors. Q9F4F7. AID 1490. Biochemical Sfp PPTase activity, qHTS; active = well fitted inhibition curve with a large enough effect; inconclusive = small, poorly fitted or top-dose-only effect, or another doubt; inactive = no such curve, though single readings can be large or run the other way;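 also: the enzyme is Sfp with the accession as filed and its product quenches rhodamine fluorescence; potency is read from the fitted curve at half-maximal effect; 0% = enzyme reaction without inhibitor and -100% = no enzyme wells; top concentration of the series not given in the record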
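Fluorescence-quenching assay: 15 nM Sfp-PPTase preincubated 15 min at room temperature with compound, then 5 uM rhodamine-CoA and 12.5 uM BHQ-2-labelled YbbR peptide added. Fluorescence (ex 525/em 598 nm) read at start and after 30 min; difference gives rate.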
gsp antag – gsp mutant antagonism. gsp-mutant cells, cAMP HTRF, 30 min; control for the full effect not named in the record. Potency, µM (titrated, usually from 76.9 µM), for inactives: top-dose activity change, negative = inhibition, most hits filed as inhibitors. 340,000 tested, 0.4% active. AID 624288; active = falling curve of any shape with a large fitted effect; inconclusive = falling curve, mostly with a smaller effect; inactive = flat or rising curve; cell line not stated here;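 also: intracellular cAMP measured with PDE inhibitor Ro 20-1724 present during compound exposure; potency is read from the fitted curve at half-maximal effect; % is scaled to controls: 0 for no effect and ±100 for the full control effect; nearly all actives have a fitted effect of over 65% in size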
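HTRF cAMP read-out (cAMP-d2 plus anti-cAMP antibody-K in lysis buffer, 30 min RT). Before lysis, cells are exposed to compounds with […] for 30 min at 37C in DPBS containing Ca/Mg, BSA and Tween 20.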
Numbers without * were called inactive; ? = inconclusive; / = no result given; & = joins results of further samples; [ ] = remark or other dose.

SMILES | TRPV1 PAM | ClpP mod | Menin-MLL FL inh | gsp agonist | D2 potentiator | Sfp inh | gsp antag
CC(=O)N1N=C(c2ccc(C)o2)CC1c1cccc(F)c1 (stereo unspecified) | -7 | / | 3.2 | ? | -3 | 40µM* | -4%
COc1cc(NC(=O)CSc2nnnn2C2CCCC2)cc(OC)c1 | 4 | -0.2% | / | -69%[inhibitor] | -9 | 19% | -6%
CCN(CCN1CCCC1)C(=O)c1cc(COc2ccccc2SC)on1 | 3 | / | / | -6%[15.4 µM] | 10 | 6% | -5%
CC(C)c1ccc(NC(=O)c2cccc(Br)c2)cc1 | 6 | 1.8% | -0.1 | -24% | -4 | 13% | -10%
O=C(CNC(=O)OCc1ccccc1)NCC(=O)N1CCCC1C(=O)OCc1ccccc1 (stereo unspecified) | 5 | -0.9% | -0.1 | -23% | -8 | 7% | 4%
O=C(NCC1CCCO1)c1cccc(Oc2c(Cl)cccc2[N+](=O)[O-])c1 (stereo unspecified) | -20 | -0.9% | 0.0 | -48%[inhibitor] | 2 | 4% | -2%
Cc1ccoc1C(=O)NCc1occc1C(=O)O | 7 | -1.2% | -1.2 | -29% | 2 | 10% | -1%
COc1ccc(NC(=S)NCCC(c2ccccc2)c2ccccc2)c(OC)c1 | 2 | -3.3% | -5.9 | 18% | 7 | ? | ?
Cc1ccccc1OCC(=O)OCC(=O)NC12CC3CC(CC(C3)C1)C2 | / | -0.4% | / | -24% | -11 | / | /
CCOC(=O)c1c(C)c(C(=O)NC(C)COC)c(C)n1CC (stereo unspecified) | 8 | 0.9% | -2.1 | -6% | -13 | 9% | -3%

Already shown: an excerpt of the list.
SMILES | TRPV1 PAM | ClpP mod | Menin-MLL FL inh | gsp agonist | D2 potentiator | Sfp inh | gsp antag
CC(=O)N1N=C(c2ccc(C)o2)CC1c1cccc(F)c1 (stereo unspecified) | -7 | / | 3.2 | ? | -3 | 40µM* | -4%
COc1cc(NC(=O)CSc2nnnn2C2CCCC2)cc(OC)c1 | 4 | -0.2% | / | -69%[inhibitor] | -9 | 19% | -6%

Additional records:
SMILES | TRPV1 PAM | ClpP mod | Menin-MLL FL inh | gsp agonist | D2 potentiator | Sfp inh | gsp antag
CN(CC(=O)Nc1cccc(Cl)c1)S(=O)(=O)/C=C/c1ccccc1 | / | -2.1% | / | 0% | -29 | / | /
CCN1CCCC1CNC(=O)C(=O)NC (stereo unspecified) | 4 | 0.4% | 2.7 | 8% | 1 | 12% | 3%
O=C1COc2ccc(S(=O)(=O)NCCc3ccccc3)cc2N1 | 15 | / | 0.2 | -5% | -8 | 13% | 4%
O=C(Nc1cccc(Cl)c1)c1ccncc1 | -13 | 0.5% | 3.4 | -9% | -11 | 9% | 10%
CCOc1ccc(N2C(=O)c3cccnc3C2Nc2ccc(C)cc2)cc1 (stereo unspecified) | 8 | -1.3% | -0.2 | 20% | -4 | 4% | -9%
Cc1nc(C(C)N(C)Cc2c(C(=O)N3CCCCC3)nc3c(C)cccn23)c(C)s1 (stereo unspecified) | 16 | / | 2.8 | 18% | -9 | 3% | -3%
COc1ccc(C)cc1NCc1cc(=O)oc2cc(-c3ccccc3)c(O)cc12 | -8 | 1.6% | -1.7 | 1% | 7 | -17% | -11%
Cc1nn(Cc2ccc(Cl)cc2)c(C)c1NC(=O)c1noc2c1CCc1ccccc1-2 | ? | 1.2%&-0.8% | 2.1 | 13% | -3 | 6% | -30%
CC(OC(=O)c1cccnc1)C(=O)NCc1ccc2c(c1)OCO2 (stereo unspecified) | 10 | 20% | 9.5 | 5% | -27 | 24% | -3%
CCCS(=O)(=O)N1CCCC(C(=O)NCCN(CC)CC)C1 (stereo unspecified) | 11 | -0.2% | 1.0 | 9% | -6 | 1% | 2%
CC(C)(C)[C@@H]1C=C(C(=O)Nc2ccccc2)O[C@H](OCc2ccc(CO)cc2)C1 | 11 | 0.8% | -2.3 | / | -1 | -5% | -20%
O=C(Nc1cccc(NC(=O)c2ccccc2Cl)c1)c1ccc(F)cc1 | -6 | -2.8% | 0.5 | -1% | -15 | 8% | -24%
Cc1[nH]c2ccc(C(=O)N3CCN(c4ccccn4)CC3)cc2c1C | -2 | -12% | 9.3 | 3% | 6 | 7% | 3%
CCOc1ccc(N2C(=O)C3ON(C)C(c4ccc([N+](=O)[O-])cc4)C3C2=O)cc1 (stereo unspecified) | -2 | -0.5% | 1.3 | 24% | -12 | 1% | -7%
O=C1C2C3C=CC([C@@H]2C(=O)N1C1CCCCC1)[C@H]1C(=O)N(C2CCCCC2)C(=O)C31 (stereo partly specified) | -4 | 0.2% | 0.5 | ? | -12 | 8% | 12%
N#CCSc1n[nH]c2nc3c(c(=O)n12)C1(CCCCC1)Cc1ccccc1-3 | 25 | / | 7.7 | -2%[15.4 µM] | -1 | 50µM* | ?
O=C(Nc1ccc(Cl)c([N+](=O)[O-])c1)Nc1nc2ccccc2s1 | 6 | / | -5.2 | / | / | 6% | /
COCc1nnc(NC(=O)c2ccc(S(=O)(=O)N3CCCc4ccccc43)cc2)o1 | 2 | / | 6.1 | 9%[15.4 µM] | -11 | 24% | -3%
Cn1c(C(=O)N2CCCC(C(=O)N3CCN(C(=O)c4ccco4)CC3)C2)cc2sccc21 (stereo unspecified) | 2 | -2.0% | -2.0 | -22% | -1 | 10% | -19%
Cc1ccc(NC(=O)COC(=O)CCc2nc3ccccc3c(=O)[nH]2)c(Br)c1 | 21 | 0.0% | 3.0 | -9%[15.4 µM] | -26 | -16% | -20%
c1ccc(N2CCCCC2)c(NC2=NCCC2)c1 | -6 | -20% | 4.3 | 1% | -18 | 22% | 2%
O=C1Nc2ccc(Cl)cc2C(=O)C1(F)c1ccccc1 (stereo unspecified) | -1 | 0.3% | 3.8 | 9%[15.4 µM] | 7 | 3% | -1%
NS(=O)(=O)c1ccc(CNC(=O)NC23CC4CC(CC(C4)C2)C3)cc1 | -16 | -1.2% | 1.6 | 44% | -3 | 5% | 7%
CCCCN1C=CC(=C2C(=O)c3ccccc3C2=O)C=C1 | 21 | / | ? | 17% | -5 | 20% | -12%
CC1Cc2cc(/C=C3/SC(=S)NC3=O)ccc2O1 (stereo unspecified) | 8 | / | 8.2 | -8%[15.4 µM] | -10 | -2% | ?
CN(C(=O)c1c(Cl)cnn1C)C12CC3CC(CC(C3)C1)C2 | -11 | 0.5% | 3.0 | -3%[15.4 µM] | -2 | 16% | -3%
COc1cc(/C=C2\C(=N)N3N=CSC3=NC2=O)cc(Br)c1OC(=O)c1ccco1 | 5 | -0.5% | ? | 22% | -6 | 4% | -6%
O=C(CCn1c(=O)oc2ccccc21)N1CCCCCC1 | -4 | -4.6% | 0.6 | -22% | 6 | 13% | 3%
CC(Oc1cc2oc(=O)c3c(c2cc1Cl)CCC3)C(=O)NCc1ccncc1 (stereo unspecified) | -19 | / | / | 2% | -6 | 5% | -13%
COc1ccccc1N1CCN(C(=O)C2CCN(S(=O)(=O)c3ccc(C)cc3)CC2)CC1 | -6 | / | 1.3 | 0%[15.4 µM] | -5 | 14% | -22%

Structures shown so far that have a nitro group on carbon:
SMILES | TRPV1 PAM | ClpP mod | Menin-MLL FL inh | gsp agonist | D2 potentiator | Sfp inh | gsp antag
O=C(NCC1CCCO1)c1cccc(Oc2c(Cl)cccc2[N+](=O)[O-])c1 (stereo unspecified) | -20 | -0.9% | 0.0 | -48%[inhibitor] | 2 | 4% | -2%
CCOc1ccc(N2C(=O)C3ON(C)C(c4ccc([N+](=O)[O-])cc4)C3C2=O)cc1 (stereo unspecified) | -2 | -0.5% | 1.3 | 24% | -12 | 1% | -7%
O=C(Nc1ccc(Cl)c([N+](=O)[O-])c1)Nc1nc2ccccc2s1 | 6 | / | -5.2 | / | / | 6% | /

(next part)
SMILES | TRPV1 PAM | ClpP mod | Menin-MLL FL inh | gsp agonist | D2 potentiator | Sfp inh | gsp antag
C[C@H](NC(=O)OC(C)(C)C)C(=O)N/N=C/c1cccc2nccnc12 | 5 | -0.1% | 4.3 | -1%[15.4 µM] | -3 | ? | 5%
CCn1c(SCc2nc3ccccc3[nH]2)nnc1-c1cccs1 | 12 | -17% | 1.5 | 5% | -16 | -12% | 0%
COc1ccc(CN2C(=O)C(Cc3ccccc3)Nc3ncnc(N4CCN(c5ccccc5)CC4)c32)cc1 (stereo unspecified) | -26 | -6.4% | / | / | -38 | / | -6%
O=C(CCn1c(=O)oc2ccccc21)NCCCN1CCN(c2ccc(F)cc2)CC1 | -18 | -3.5% | -5.1 | -14% | -40 | 7% | 3%
Cc1cc2c(cc1C)[n+](C)cn2CC(O)COCC1CC=CCC1 (stereo unspecified) | 11 | / | -3.7 | 0%[15.4 µM] | -8 | 18% | 8%
CC(OC(=O)c1cccc([N+](=O)[O-])c1)C(=O)N1CCc2ccccc21 (stereo unspecified) | -4 | 0.5% | / | -29% | -17 | / | 2%
COc1ccc(NC(=O)CN2C(=O)NC(C)(C3CC3)C2=O)cc1S(=O)(=O)N1CCOCC1 (stereo unspecified) | 11 | 0.9% | / | ? | 1 | / | 16%
CC1=NN(c2ccc(Cl)cc2)C(=O)C1C(c1cccc(O)c1)c1c(C)[nH]n(-c2ccc(Cl)cc2)c1=O (stereo unspecified) | 3 | -1.8% | 1.2 | 9%[15.4 µM] | -15 | 11% | -4%
CCc1sc(NC(=O)c2cc3ccccc3oc2=O)nc1-c1cccs1 | 5 | -4.7% | 4.1 | 13%[15.4 µM] | 0 | -4% | 12%
COc1ccccc1/C=C/CN1CCN(Cc2ccc(C)o2)C(CCO)C1 (stereo unspecified) | 4 | / | -1.4 | -14% | -17 | -3% | 6%
CCOc1cc(/C=C/c2cccc[n+]2C)ccc1O | -3 | -1.4% | 1.7 | 27% | -4 | 10% | -22%
COC(=O)C(NC(=O)c1c(C)nn(C)c1Cl)c1ccccc1 (stereo unspecified) | -5 | 17% | -4.7 | -4%[15.4 µM] | -3 | 12% | 5%
COc1ccc(CCNC(=O)c2ccc3c(c2)NC(=O)C(CSCc2cc(C)ccc2C)N3)cc1OC (stereo unspecified) | -5 | / | ? | / | / | 45µM* | /
COc1ccccc1-c1c(C)nn2c(N3CCOCC3)cc(C)nc12 | -12 | -2.0% | -1.5 | 3% | -4 | -5% | -2%

Hits appear at their usual frequency; overall some 5.1% were active at least once.
